Screening results deposited in PubChem by several laboratories.
RecA intein inh: inhibitors of M. tuberculosis RecA intein splicing. P9WHJ3. cell-free RecA intein splicing, fluorescence. inhibition, %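 (about 9 µM by stock and volumes)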. 0.75% of 290,000 active. AID 2221; in the data active means inhibition above about 30%; inconclusive means no clear call, values can overlap the other calls;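 further: 0% = vehicle wells and 100% = reference inhibitor control wells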
Target sequence (P9WHJ3 whole entry, looked up): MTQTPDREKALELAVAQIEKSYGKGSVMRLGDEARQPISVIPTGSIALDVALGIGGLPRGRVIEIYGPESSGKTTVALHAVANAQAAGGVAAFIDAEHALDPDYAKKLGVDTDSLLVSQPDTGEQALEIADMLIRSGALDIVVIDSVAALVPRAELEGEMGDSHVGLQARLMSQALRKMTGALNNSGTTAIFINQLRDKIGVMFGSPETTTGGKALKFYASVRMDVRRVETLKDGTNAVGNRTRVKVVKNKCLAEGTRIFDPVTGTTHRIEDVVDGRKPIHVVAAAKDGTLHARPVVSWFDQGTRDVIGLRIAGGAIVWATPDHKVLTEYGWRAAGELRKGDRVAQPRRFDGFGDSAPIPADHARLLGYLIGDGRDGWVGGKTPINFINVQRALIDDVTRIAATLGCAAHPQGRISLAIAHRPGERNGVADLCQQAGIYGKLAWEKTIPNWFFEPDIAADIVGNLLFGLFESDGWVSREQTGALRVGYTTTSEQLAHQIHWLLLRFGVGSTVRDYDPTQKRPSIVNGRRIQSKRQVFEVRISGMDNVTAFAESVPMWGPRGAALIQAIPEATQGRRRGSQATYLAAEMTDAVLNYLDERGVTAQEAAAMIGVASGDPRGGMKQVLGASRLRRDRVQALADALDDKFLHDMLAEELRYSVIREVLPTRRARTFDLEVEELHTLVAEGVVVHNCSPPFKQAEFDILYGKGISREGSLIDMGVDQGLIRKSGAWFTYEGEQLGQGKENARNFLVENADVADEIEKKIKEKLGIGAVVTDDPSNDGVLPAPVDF
Mtb H37Rv: M. tuberculosis H37Rv growth inhibitors, H37Rv strain (AID 1626) | M. tuberculosis H37Rv growth inhibition; higher % means a stronger effect | inhibition, % at 10 µM; hits with a dose series show IC50 in µM | 0.95% of 220,000 active;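 active means confirmed in a dose series; inconclusive means inhibition above 80% but not taken into the dose series; inactive means below 80% or under 30% at every dose of the series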;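 further: bacteria incubated seven days before Alamar blue readout; 0% = bacteria only wells and 100% = bacteria with antibiotic wells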
YopH PTP inh: blocks Yersinia enterocolitica YopH tyrosine phosphatase; fluorescence Ex485/Em525; inhibition, %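 (about 10 µM by stock and volumes)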; 0.16% of 140,000 active;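 active means inhibition of 50% or more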;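 further: controls were vehicle for no effect and minimum signal wells for full effect; inactives centre near -20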
Arbovirus anti: antivirals against arbovirus infection | arbovirus infection cell-based antiviral screen | inhibition, % at 10 µM | 0.37% of 200,000 active | AID 1251;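 active means inhibition from about 30%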;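 further: bluetongue infection of BSR cells; cell survival read as ATP light after 72 h; 0% = infected wells without compound and 100% = uninfected wells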
Mtb betalactam: beta-lactam sensitization of Mtb H37Rv | M. tuberculosis H37Rv growth with meropenem, percent inhibition; hits of this screen are not shown here | 0.27% of 330,000 active | inhibition, % at 25 µM;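 active means about 74% or more and at least 40 points above the plate without the antibiotic, then above 30% in a dose series; inconclusive means first-round hits that could not be retested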;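 further: growth measured after seven days incubation then overnight dye step; 0% = bacteria only wells and 100% = bacteria with antibiotic; twin plates without the antibiotic show which effects depend on it; some results filed as inactive read as strong as hits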
Arbovirus anti repeat: also measured in Arbovirus anti; calls as there; inhibition, %; measured here: 10K subset replicate screen; many hits read low in the repeat;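 first of two repeat runs on a subset; 0% = infected and 100% = uninfected wells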
* = called active by the depositor; ? = inconclusive; nt = not tested or not shown. The list is partial; the hit share may differ from the screen's.

SMILES	RecA intein inh	Mtb H37Rv	YopH PTP inh	Arbovirus anti	Mtb betalactam	others
CC(C)COc1ccc(C(=O)NC(=S)Nc2ccc(CN3CCOCC3)cc2)cc1	-0.9	-6%	-23	-4	8
CC1CN(C(=O)CN2C(=O)NC3(CCCCCC3)C2=O)CC(C)O1 (stereo not given)	-2.9	-6%	-12	3	1
CCOc1ccc(C2C(C#N)=C(N)Oc3nc[nH]c(=O)c32)cc1 (stereo not given)	-12	-2%	nt	-5	0
CC(C)(C)n1nc2c(c1NC(=O)c1ccc(S(=O)(=O)N3CCCCC3)cc1)CS(=O)C2 (stereo not given)	nt	8%	-45	-1	-2
CCOC(=O)C1=C(N)Oc2c(c(=O)oc3ccccc23)C12C(=O)N(C)c1ccccc12 (stereo not given)	3.3	3%	-39	5	-7
CCCCCNC(=O)c1c[nH]c2ccc(S(=O)(=O)N3CCC4(CC3)OCCO4)cc2c1=O	2.7	-4%	21	-2	5
COc1ccc(C2NCCc3c2[nH]c2ccccc32)cc1CSc1nc2ccccc2s1 (stereo not given)	19	?	-30	-35	100
COc1ccccc1-n1cnnc1SCC(=O)Nc1cc(C)on1	-1.7	-1%	nt	-19	0
O=C(O)CNC(=S)N(Cc1ccccc1)Cc1cccs1	0.8	4%	nt	2	-11
COc1ccc(C2c3ccc(O)cc3Oc3ncn(CCCO)c(=N)c32)cc1 (stereo not given)	0.6	8%	nt	nt	-1
CN1CCC(N(C)S(=O)(=O)c2ccc(NC(=O)COc3ccc(F)cc3Cl)cc2)CC1	3.7	nt	nt	nt	6
CCCSc1nnc2n(N)c(=O)c3ccccc3n12	-1.0	-10%	-5	-1	-24
CC(=O)c1cccc(N(CC(=O)NC2CCCC2)C(=O)CNC(=O)c2cccs2)c1	-0.3	nt	nt	nt	0
COCCNC(=O)COc1ccc(C)c(C)c1	-0.9	-9%	-67	2	7
COc1ccccc1NC(=O)NCc1ccccc1F	3.8	6%	nt	-4	-7
CC(=O)CCN1C(=O)NC2(CCCc3ccccc32)C1=O (stereo not given)	-0.9	nt	nt	nt	-14
CC(C)(C)C(=O)Nc1nc(-c2ccccc2)ns1	-1.2	2%	9	23	6
CCOC(=O)c1c2c3c(cccc3n(C)c1=O)C(=O)c1ccccc1-2	6.9	nt	nt	nt	4
Cc1nc2c(C)cccn2c1/C(O)=C1\C(=O)C(=O)N(CCN(C)C)C1c1ccncc1 (stereo not given)	2.3	-9%	-43	1	1
COc1ccccc1CC(=O)NCCc1ccccc1	-0.8	nt	nt	nt	-3
C/C(=N\NC(=O)CCc1c[nH]c2ccccc12)c1cccc([N+](=O)[O-])c1	-0.6	-5%	-28	-7	2
COc1ccc(Cc2nnc(NC(=O)c3ccccc3)s2)cc1OC	1.4	nt	nt	nt	-1
Cc1ccc(Cn2c(=O)c3cccnc3n(CC(=O)Nc3cccc(C(F)(F)F)c3)c2=O)cc1	-2.2	4%	-21	-6	-4
Cc1cc2oc(=O)cc(CN3CCC(C)CC3)c2c(C)c1Cl	nt	-8%	-36	7	-1
Cc1cnc(C(=O)Nc2ccc(C)c(S(=O)(=O)N(C)C)c2)cn1	-0.1	-5%	-22	-7	2
CCN(C(=O)COC(=O)c1c2c(nc3ccccc13)/C(=C/c1ccccc1)CC(C)C2)C1CCS(=O)(=O)C1 (stereo not given)	2.9	?	-26	-35	90
Cc1ccc(C2=NCCn3c2c2ccc(C(F)(F)F)cc2[n+]3[O-])cc1	0.6	nt	nt	nt	98
CCN(CC)CCNC(=O)c1cc(S(C)(=O)=O)ccc1OC	2.2	nt	-29	17	-2
COc1ccc(Nc2oc(-c3ccccc3Cl)nc2C#N)cc1	0.0	13%	-50	-14	4	Arbovirus anti repeat=-19
Cc1ccc(-c2nnn(CC(=O)N(Cc3cccs3)C(C(=O)NCC3CCCO3)c3ccco3)n2)o1 (stereo not given)	0.4	-4%	nt	-3	0
O=C1CSC(=S)N1/N=C/c1ccc(C(F)(F)F)cc1	1.6	nt	nt	nt	-1
COc1ccc(N=Cc2sc(O)c3ccccc23)cc1	-2.1	62%	-6	-4	88
CN(C)c1ccc(CN2CCCCC2)cc1	-2.2	-12%	9	-3	-12
CC(C)NC(=O)NC(=O)COC(=O)c1ccc(OC(F)(F)F)cc1	0.4	-1%	-19	-4	7
CN(CC(=O)NCCc1ccccc1)Cc1ccco1	1.4	nt	nt	nt	-1
CCN(Cc1ccccc1)C(=O)C1CCN(S(=O)(=O)c2ccc3c(c2)OCCO3)CC1	6.0	nt	nt	nt	2
Cc1ccc(NC(=O)COC(=O)[C@H](C)NC(N)=O)c(C)c1	-2.0	-3%	nt	2	4
Cc1ccc(S(=O)(=O)N2CCC(C(=O)N[C@H](C(=O)NCC3CCCO3)C(C)C)CC2)cc1 (stereo not given in full)	-0.6	3%	-13	-1	-9
COc1ccc(CN2C(=O)C(Cc3ccccc3)Nc3ncnc(N4CCCCC4)c32)cc1 (stereo not given)	1.9	nt	nt	nt	2
O=C(O)c1cccc(NS(=O)(=O)c2ccc3c4c(cccc24)C(=O)N3)c1	-1.4	nt	nt	nt	2
Cc1ccc(NC(=O)CSCC(=O)Nc2cc(C(F)(F)F)ccc2N2CCOCC2)cc1	-1.9	nt	nt	nt	1
COc1ccc(NC(=O)Cn2nnc(-c3ccc(CN4CCOCC4)cc3)n2)c(OC)c1	-4.0	-9%	-8	-3	-10
Cc1cc(N2CC(C(=O)Nc3nccs3)CC2=O)ccc1C(C)C (stereo not given)	0.9	nt	nt	nt	21
Cc1ccc(CNc2nc(N)c([N+](=O)[O-])c(NCCO)n2)cc1	0.9	1%	nt	nt	-3
O=C1C2C(C(=O)N1/N=C/c1cc([N+](=O)[O-])ccc1O)C1C=CC2C12CC2 (stereo not given)	0.3	-6%	-17	-8	7
CC(C)C(O)(C(=O)NNc1ccccc1)C(C)C	-1.7	-1%	nt	nt	6
Cc1cc(C)c2cc(CN(CC3CCCO3)C(=S)NCc3ccco3)c(=O)[nH]c2c1 (stereo not given)	5.9	-2%	nt	-5	-2
Cc1ccccc1C(=O)Nc1ccccc1C(=O)NC1CC1	2.5	nt	nt	nt	-2
CCCn1c(N)c(N(CCOC)C(=O)/C=C/c2ccc(C(=O)OC)cc2)c(=O)[nH]c1=O	1.8	9%	nt	23	3
Cc1oc2ccc(O)cc2c1C(=O)c1ccc(F)cc1	2.6	nt	nt	nt	-6

Remaining list, next part.
SMILES	RecA intein inh	Mtb H37Rv	YopH PTP inh	Arbovirus anti	Mtb betalactam	others
COC(=O)CNC(c1ccccc1Cl)c1cc(Br)ccc1NC(=O)CCN1CCOCC1 (stereo not given)	7.0	15%	-36	0	nt
CCCCNC(=O)COCc1cc(-c2ccc3c(c2)OCO3)on1	-2.9	nt	nt	nt	5
O=c1[nH]n(-c2cccc3cccnc23)c(=O)c2ccccc12	nt	0%	-51	-5	-5
COC(=O)c1ccc(C(=O)N2CCCC(N3CCN(c4ccc(F)cc4)CC3)C2)nc1 (stereo not given)	-0.4	nt	nt	nt	36
Cc1ccc(CO/N=C\Cc2snc(Sc3ncc(C(F)(F)F)cc3Cl)c2C#N)cc1	10	3%	-35	8	0
CCN(CCn1cccn1)Cc1nc(Cc2cccc(F)c2)no1	-0.4	-1%	nt	3	4
O=C(c1ccc2c(c1)OCO2)C1CCCN(Cc2cn[nH]c2-c2ccccc2)C1 (stereo not given)	-0.7	-1%	nt	-1	4
Cc1nc2c(C(=O)NCc3ccc(F)cc3)c[nH]n2c(=O)c1Cl	22	-2%	-25	15	4
COc1ccccc1N(CC(=O)NCc1ccccc1)C(=O)CCC(=O)Nc1ccccn1	-2.9	-12%	-8	8	1
CCOC(=O)Cc1csc(N/C(=N/S(=O)(=O)c2ccc(Cl)cc2)c2ccccc2)n1	3.3	4%	-15	28	-9
COc1ccc(CC(=O)OCC(=O)Nc2ccc(Br)cc2)cc1	0.8	2%	nt	0	1
CC1(C)CC(=O)C(C=Nc2ccc(Cl)cn2)=C(O)C1	-1.5	-7%	-29	-4	10
COc1ccc(-c2[nH]ncc2CN(CCO)Cc2cccs2)c(F)c1	1.2	0%	nt	5	-1
COCCn1cnc2c1c(=O)n(CC(=O)OCC(=O)NCCCc1ccccc1)c(=O)n2Cc1ccccc1	13	1%	-32	1	20
CC1(C)Cc2c(C#N)c(OCC(=O)c3ccccc3)nc(-c3ccoc3)c2CO1	1.2	-1%	-33	-10	6
CC(=O)Nc1ccc(/C=N/NC(=O)CNC(=O)c2ccccc2)cc1	-2.7	-1%	nt	-2	-11
O=C(CSc1nc2[nH]ncc2c(=O)[nH]1)NCc1ccccc1Cl	-2.2	1%	-20	6	0
CS(=O)(=O)NCc1nnc(SCc2ccc(C(F)(F)F)cc2)o1	-0.8	15%	nt	nt	0
N=C1C(c2nc3ccccc3s2)=C(O)CN1NC(=O)c1ccco1	-1.4	-6%	nt	nt	-6
Cc1ccc(C)c(S(=O)(=O)N2CCN(CC(=O)Nc3sccc3C#N)CC2)c1	-0.2	6%	6	4	1
CC1CCN(C(=O)c2ccccc2NC(=O)c2cccc(S(=O)(=O)N3CCOCC3)c2)CC1	nt	-4%	-14	4	nt
COc1cc(CN2CCN(c3ccc(C)cc3)CC2)cc([N+](=O)[O-])c1O	-2.8	1%	-20	2	-7
C[C@H]1C=C(C(=O)NCc2ccccc2)O[C@@H](OCc2ccc(CO)cc2)C1	0.9	nt	nt	1	-3
Cc1oc(-c2cccc(Cl)c2)nc1CN1CCC(C(=O)NC2CC2)CC1	-0.7	nt	nt	nt	-2
CCN1C(=O)C2(C(C#N)=C(N)Oc3c2c(C)nn3-c2ccccc2)c2ccccc21 (stereo not given)	21	5%	-16	-18	74
COc1ccc2oc(C(=O)OCC(=O)N(C)C3CCCCC3)c(C)c2c1	-1.1	nt	nt	nt	7
CSc1nc2c(c(=O)[nH]1)CCCC2	0.3	-6%	-8	-2	-9
CCn1ccc(C(=O)NC2C(=O)N3C(C(=O)O)=C(C)CSC23)n1 (stereo not given)	3.3	-5%	-27	3	18
N#Cc1c(C(F)(F)F)cc(=O)[nH]c1SCC(=O)O	-2.4	-1%	nt	9	-4
Nc1ccc2nc(-c3ccccc3)cnc2c1	-187	nt	nt	nt	63

A draw from above in order of SMILES length, ascending.
SMILES	RecA intein inh	Mtb H37Rv	YopH PTP inh	Arbovirus anti	Mtb betalactam	others
Nc1ccc2nc(-c3ccccc3)cnc2c1	-187	nt	nt	nt	63
C[C@H]1C=C(C(=O)NCc2ccccc2)O[C@@H](OCc2ccc(CO)cc2)C1	0.9	nt	nt	1	-3
CC1CCN(C(=O)c2ccccc2NC(=O)c2cccc(S(=O)(=O)N3CCOCC3)c2)CC1	nt	-4%	-14	4	nt

Two entries drawn at random from those above, as already listed:
SMILES	RecA intein inh	Mtb H37Rv	YopH PTP inh	Arbovirus anti	Mtb betalactam	others
COc1ccc2oc(C(=O)OCC(=O)N(C)C3CCCCC3)c(C)c2c1	-1.1	nt	nt	nt	7
C[C@H]1C=C(C(=O)NCc2ccccc2)O[C@@H](OCc2ccc(CO)cc2)C1	0.9	nt	nt	1	-3

Further structures:
SMILES	RecA intein inh	Mtb H37Rv	YopH PTP inh	Arbovirus anti	Mtb betalactam	others
CC(C(=O)O)N(C(=O)c1ccccc1)c1ccc(F)c(Cl)c1 (stereo not given)	-1.8	5%	nt	2	0
C=CCSC1=N/C(=C\c2cccnc2)C(=O)N1c1ccc(OC)cc1	-0.8	15%	-5	1	5
Cc1ccccc1OCC(O)CN1CCN(CC(O)COc2ccccc2C)CC1 (stereo not given)	0.9	6%	nt	-2	2
CC(=O)Oc1ccc(/C=C2/Oc3ccccc3C2=O)cc1	-0.4	22%	nt	nt	92
O=C(CSc1nnc(NC(=O)c2c(F)cccc2F)s1)NCc1ccccc1	-2.6	nt	nt	nt	1
COc1cc([N+](=O)[O-])ccc1NC(=S)NNC(=O)c1ccc2c(c1)OCO2	1.3	nt	nt	nt	-3
CCOc1cc(/C=N/NC(=O)c2cc(C3CC3)[nH]n2)ccc1O	nt	-5%	nt	-12	7
CC(NC(=O)CCc1nnc(Cc2cccc(C(F)(F)F)c2)o1)C1CC1 (stereo not given)	-0.7	-3%	nt	5	-3
COc1ccccc1/C=C/C(=O)Nc1ccc(S(=O)(=O)Nc2cc(C)nc(C)n2)cc1	-0.2	nt	nt	nt	10
COC(=O)C(NC(C)=O)(Nc1nc(C)cs1)C(F)(F)F (stereo not given)	0.5	-15%	-12	6	-5
O=C(NNc1nc2ccccc2nc1C(F)(F)F)c1ccccc1	-0.5	11%	-15	-3	-5
COc1cc(C(=O)NC(=S)N2CCCCCC2)cc(OC)c1OC	-0.5	12%	nt	25	10
CN(C)c1ccnc(-n2cccc2/C=N/OCc2ccccc2)c1C#N	-3.1	5%	-15	0	-5
O=C(Nc1ccc2nc(-c3ccccc3)[nH]c2c1)c1ccco1	3.7	-7%	-15	-31	6
O=C1NC(=O)C2C1C(c1cccs1)NN2Cc1ccccc1 (stereo not given)	-3.2	3%	nt	7	10
